PrP UTR inh: suppresses PrP 5' UTR mRNA reporter expression; cell-based PrP 5' UTR mRNA reporter, plate reader; inhibition, % (test concentration not listed); 340,000 compounds, 0.35% hits; AID 488862;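 active = every replicate at 50% or more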;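 also: 0 = median of the neutral control wells; tested in H4 reporter cells; numbers are from one replicate; inactives centre near -14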
Autofluor counter: compound fluorescence in toxin protease inhibitor counterscreen. AID 624483. 360,000 compounds, 3.1% hits. fluorescence intensity (no concentration beside the values). compound autofluorescence counterscreen, microsphere flow cytometry; hits give high values;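 active = at least 3 SD above the mean of all compounds, about 16000 in these data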;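 also: 100 nL of 1 mM stock went into each well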
Mtb hypoxia rep: inhibitors of hypoxia-regulated fluorescent reporter in Mycobacterium tuberculosis | M. tuberculosis hypoxia-regulated fluorescent reporter, fluorescence | fluorescence inhibition, % (no concentration beside the values) | 300,000 compounds, 0.1% hits | AID 1159583;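 active = 35 to 45% if threefold the growth effect, above 45% if 1.5-fold the growth effect; inactive = the rest, general growth blockers included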;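 also: wells of about 50 µL received 100 nL stock; 0% = vehicle wells and 100% = reference inhibitor wells; whole bacteria with a GFP reporter of the hypoxia response; strong numbers were not always called active; many hits fall short of the cut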
RN4220 kill: S. aureus RN4220 growth inhibition; OD600, 16 h; inhibition, % (test concentration not listed); 330,000 compounds, 0.33% hits;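 active = z-score of -3 or lower and OD600 up to 0.18 on both plates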;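 also: plate controls were untreated cells for no effect and reference antibiotic for full effect; stock transfer was 100 nL into about 80 µL; one replicate is shown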
BJeLR lethal: BJeLR cell viability loss; BJeLR (HRASV12) viability, CellTiter-Glo ATP luminescence, 48 h; reference of the scale not given here; inhibition, % (concentration not given with the values); 300,000 compounds, 0.17% hits; AID 1554;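 active = replicate mean above 50%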;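 also: 50 nL library stock added to about 25 µL; numbers are from one replicate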
Sa ugtP lethal: kills S. aureus RN4220 lacking UgtP | growth inhibition, % (concentration not given with the values) | AID 1259309 | S. aureus RN4220 ugtP deletion, OD600 growth, 16 h; some inactives read as strong as hits | 330,000 compounds, 0.54% hits;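 active = z-score under -3 and OD600 up to 0.15 on both plates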;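 also: plate controls were untreated wells for no effect and antibiotic for full effect; wells of about 80 µL received 100 nL stock; the first replicate is given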
Mtb hypoxia rep growth: also measured in Mtb hypoxia rep; calls as there; growth inhibition, %; measured here: M. tuberculosis growth (absorbance);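 0% = vehicle and 100% = reference antibiotic; read after six days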
* marks the source's active call; other numbers are inactive results; nt = no result given. Outcome played no part in choosing rows (roughly 3.9% active in at least one column).

cpd	SMILES	Mtb hypoxia rep growth	BJeLR lethal	RN4220 kill	Mtb hypoxia rep	Sa ugtP lethal	Autofluor counter	PrP UTR inh
1	CCCc1cc(C(=O)N2CCC(N3CCC(C(=O)NC(C)C)CC3)CC2)n(C)n1	0	-8	1.6	-4	0	2589	-17
2	CNc1nc(OCCNC(=O)Nc2ccccc2)nc(N2CCOCC2)n1	8	6	3.4	3	1	5537	-19
3	O=C(COC(=O)c1cccnc1Cl)c1cccc(Cl)c1	4	-1	8.0	15	-10	10545	-31
4	CCN(CCO)Cc1csc2ccc(Cl)cc12	4	-15	5.8	1	4	2112	-26
5	CCOc1ccccc1CN1CCNC(=O)C1CC(=O)NCc1cc(C)n(C)n1 (stereo not given)	10	-3	0.7	1	-1	5271	-13
6	CCOc1ccccc1C1SCC(=O)Nc2c1c(=O)[nH]n2C(CC)CC (stereo not given)	nt	0	-0.3	nt	4	4885	-16
7	CCOC(=O)c1cnc(-n2nc(C)cc2C)nc1NNc1nc(-c2ccccc2)cc(-c2ccccc2)n1	-1	-3	24	0	-2	7231	-9
8	CCC1=C2CCC3C(=O)N(c4ccccc4)C(=O)C3C2[C@@]2(C)C(=NCc3ccccc3)OC(=O)N2C1=O (stereo not given in full)	7	nt	2.7	3	2	nt	nt
9	COc1ccc(/C=N/Nc2cn[nH]c(=O)c2Cl)cc1	nt	-3	nt	nt	nt	2300	-12
10	CC1CCCCC1NC(=O)CN1CCC(O)(c2ccc(F)cc2)CC1 (stereo not given)	6	7	2.3	10	7	4382	-14
11	CCOc1cc(C)c(Cl)cc1S(=O)(=O)N1CCCC1	nt	-3	9.3	nt	-2	3784	-19
12	Cc1ccc(NC(=O)CCC(=O)NNC(=O)COc2ccc([N+](=O)[O-])cc2)cc1C	-7	-4	7.1	-3	8	4828	-44
13	CCCCOP(=O)(c1ccc(N(C)C)cc1)C(Nc1ccccc1)c1ccccc1 (stereo not given)	6	-2	0.8	18	-22	8908	-4
14	O=C(Nc1nnc(-c2ccccc2F)s1)c1cccnc1	6	4	2.5	-3	7	4710	-63
15	CC(=NNC(=O)CNC(=O)CCc1ccccc1)c1ccc(Cl)c(Cl)c1	17	nt	-4.7	3	-13	nt	nt
16	CCCCCCC1CC(CCC(=O)Nc2ccc([N+](=O)[O-])cc2)C(=O)O1 (stereo not given)	nt	4	0.4	nt	-9	2777	-14
17	CCN1CCc2c(OCC(=O)Nc3cccc(C)c3C)cccc2C1=O	2	7	3.5	4	4	nt	nt
18	CSc1c(CC(=O)NCCO)n(C)c2ccccc12	-9	-1	2.1	-7	1	8430	8
19	COC(=O)c1ccc2c(=O)n(Cc3ccc4c(c3)OCO4)c(SCC(=O)N3CCCC3)nc2c1	5	2	11	4	6	nt	nt
20	CC1CC(=O)Nc2ccccc2N1C(=O)Nc1ccccc1 (stereo not given)	-4	-9	3.2	3	5	5569	-11
21	CCN1CCN(C(=O)C2CCN(c3nnc(-n4c(C)ccc4C)s3)CC2)CC1	nt	0	2.7	nt	-2	6146	-24
22	CCS(=O)(=O)N1CCN(c2ccc([N+](=O)[O-])c(NCC3CCCO3)c2)CC1 (stereo not given)	8	16	-2.8	-3	-14	4528	-7
23	Cc1n[nH]c(C)c1S(=O)(=O)N1CCCC(C(=O)N2CCN(c3ccc(Cl)cc3)CC2)C1 (stereo not given)	nt	nt	-0.8	nt	1	2840	-27
24	Nc1ncc(-c2ccccc2)c(-c2ccc(OCc3ccccc3)cc2O)n1	3	7	1.4	18	1	3960	-14
25	CCOc1ccc(C=NNC(=O)c2nnn(-c3nonc3N)c2CN2CCC(C)CC2)cc1	-4	nt	5.4	4	2	nt	nt
26	COCC(=O)N1CCC(Oc2ccc(C(=O)NC(C)c3nc(C)sc3C)cc2)CC1 (stereo not given)	4	4	3.2	-3	5	6145	-12
27	O=C(Nc1c(C(=O)N2CCN(c3ccccn3)CC2)oc2ccccc12)c1ccc([N+](=O)[O-])cc1	5	-2	10	4	-2	5271	-2
28	Cc1cccc(C)c1NC(=O)CCCN1CC(C)OC(C)C1 (stereo not given)	nt	-6	-0.9	nt	8	4391	-12
29	COc1ccccc1C(=O)COC(=O)c1cnc(C)cn1	-4	-2	-2.9	-1	-3	4239	-2
30	COc1ccc(Cc2nnc(NC(=O)CS(=O)(=O)c3ccccc3)s2)cc1OC	nt	-4	nt	nt	nt	3619	-24
31	CCOC(=O)c1cnc(SCC(=O)N2CCC(C(N)=O)CC2)nc1N	4	0	3.2	12	0	4288	-11
32	COc1ccc(NC(=O)NN(C(=O)c2ccccc2)C(C)(C)C)cc1	9	2	-0.1	9	10	2225	-25

One compound at a time, from the list above.
COCC(=O)N1CCC(Oc2ccc(C(=O)NC(C)c3nc(C)sc3C)cc2)CC1 (stereo not given) in the list: Mtb hypoxia rep growth = 4; BJeLR lethal = 4; RN4220 kill = 3.2; Mtb hypoxia rep = -3; Sa ugtP lethal = 5; Autofluor counter = 6145; PrP UTR inh = -12
COc1ccc(NC(=O)NN(C(=O)c2ccccc2)C(C)(C)C)cc1 in the list: Mtb hypoxia rep growth = 9; BJeLR lethal = 2; RN4220 kill = -0.1; Mtb hypoxia rep = 9; Sa ugtP lethal = 10; Autofluor counter = 2225; PrP UTR inh = -25

The list goes on.
cpd	SMILES	Mtb hypoxia rep growth	BJeLR lethal	RN4220 kill	Mtb hypoxia rep	Sa ugtP lethal	Autofluor counter	PrP UTR inh
33	O=C(c1cccc(C(F)(F)F)c1)N(c1ccccn1)C1CCCCC1	5	-1	6.3	6	7	4590	-25
34	CC(=O)Nc1ccc(C2=NN(Cc3nnc(-c4ccccc4)o3)C(=O)SC2)cc1	nt	6	nt	nt	nt	2483	8
35	CC(=O)Nc1ccc(S(=O)(=O)NCC(=O)OCC(=O)N2CCCc3ccccc32)cc1	9	-13	1.6	15	1	2187	-26
36	COc1ccccc1NS(=O)(=O)c1ccc(NC(=O)CCNC(=O)c2ccco2)cc1	1	4	4.6	-5	2	6989	7
37	Cc1onc(-c2c(Cl)cccc2Cl)c1/C(N)=N/OC(=O)C(C)(C)C	2	-6	1.0	10	15	4416	-17
38	COc1nc(OC)nc(Oc2ccc([N+](=O)[O-])cc2Cl)n1	8	-6	6.6	7	-4	2531	-7
39	Cc1ccccc1CNCc1ccc2c(c1)OCO2	-5	17	3.5	5	9	3599	13
40	COc1ccc(OCc2cc(C(=O)NC3CCOC(C)(C)C3)no2)c2ccccc12 (stereo not given)	nt	-8	nt	nt	nt	4805	-54
41	COc1ccc(NC(=O)C2C3CCC4C(CCC32)C4(Cl)Cl)cc1 (stereo not given)	2	-5	5.0	4	-9	9864	-39
42	O=C(CCc1nnc(Cc2ccc(-c3ccccc3)cc2)o1)N1CCCC1	nt	1	nt	nt	nt	3415	-20
43	Cc1ccc(C2=NN(C(=O)CCC(=O)O)C(c3cccc([N+](=O)[O-])c3)C2)cc1 (stereo not given)	nt	3	nt	nt	nt	3311	-12
44	CC(OC(=O)CNC(=O)c1cccc(F)c1)C(=O)NC1CCCCC1C (stereo not given)	-3	2	3.9	0	6	5975	-18
45	CN1OC(c2ccccc2)=C(CO)C1c1ccccc1 (stereo not given)	1	7	5.0	-6	7	2542	-1
46	O=C1COc2ccc(C(=O)COC(=O)c3ccc4ccccc4n3)cc2N1	8	-1	-4.3	20	-10	3324	-15
47	Cc1cccc(C)c1NC(=O)C(NS(=O)(=O)c1cccs1)c1ccccc1 (stereo not given)	2	1	5.9	6	0	2013	6
48	COC(=O)C1=C(C)NC=C([N+](=O)[O-])C1c1ccc(OC)cc1 (stereo not given)	-9	1	2.5	13	-2	2606	-61
49	CN1C(=O)C(=O)/C(=C(/O)c2ccc(Br)cc2)C1c1ccc(F)cc1 (stereo not given)	4	2	5.8	15	11	3688	-3
50	CCOC(=O)C1C(=O)C(C(C)=O)C(=O)CC1CC(C)SCC (stereo not given)	2	-2	2.2	4	9	7958	-19
51	COc1ccc(-c2cn3cccnc3n2)cc1NS(=O)(=O)c1ccccc1	9	4	0.8	9	-2	2290	-18
52	O=c1c(/C=N\NS(=O)(=O)c2ccccc2)coc2ccc(Cl)cc12	nt	-2	nt	nt	nt	6061	4
53	CCCCn1c2nc3ccccc3nc2c2c(=O)n(-c3ccccc3)cnc21	-1	3	-4.0	-10	-5	2010	-20
54	COc1ccc(-c2csc(NC(=O)CN3C(=O)NC4(CCCC4)C3=O)n2)cc1OC	-7	1	5.1	-4	15	4818	-5
55	N/C(=N\NS(=O)(=O)c1ccc(Cl)cc1)c1ccccn1	5	0	0.1	12	4	5537	-49
56	CNC(=O)CSc1nc(-c2ccccc2)c(-c2ccccc2)[nH]1	-4	1	0.9	5	0	15832	0
57	Cc1n[nH]c(C)c1CN(C)C(=O)C1CCC(=O)N(CC2CCCCC2)C1 (stereo not given)	4	14	1.2	-1	4	4277	1
58	CC1C(Sc2ccccc2)CC(=O)OC1c1ccc(-c2ccccc2)cc1 (stereo not given)	9	nt	4.9	9	0	nt	nt
59	CCOC(=O)c1cc(C#N)c(SCC(=O)Nc2ccc(C(C)=O)cc2)[nH]c1=O	9	-2	17	8	12	nt	-17
60	Cc1nn(C)c(C)c1S(=O)(=O)N1CCC(C(=O)NC(C)c2ccccc2)CC1 (stereo not given)	nt	0	0.7	nt	7	5685	-18
61	Cc1cccc(C)c1NC(=O)CNC(=O)c1cncc(Br)c1	-3	-7	0.9	-5	6	5412	-9
62	O=C(c1cnn2c(C(F)F)cc(-c3ccccc3)nc12)N1CCc2ccccc2C1	7	-4	4.8	6	-9	2439	-17
63	CCN(CC)c1ccc(C(=O)c2cnc(/N=C/N(C)C)s2)cc1	nt	-1	nt	nt	nt	5208	-32
64	COc1ccc(C(=O)NCc2nnc(SCC(=O)NC3CCCCC3)o2)cc1	6	9	1.2	16	7	6119	-6
65	CC(C)(C)c1ccc(OCCC(=O)OCC(=O)NCc2ccccc2)cc1	-1	0	1.8	4	4	5875	-17
66	COc1ccc(CN(C)C(=O)c2ccc(COc3ccccc3)cc2)c(OC)c1	4	7	76	9	72	3597	-38
67	Cc1cc(NC(=O)CSc2ccc(F)cc2)no1	2	1	1.2	1	0	3369	-8
68	O=C(c1ccc(=O)oc1)N1CCN(C(c2ccccc2)c2ccccc2)CC1	4	0	1.4	14	10	23517*	1
69	CCc1ccc(NC(=O)C/C(C)=N/NC(=O)COc2ccc(C)cc2Br)cc1	nt	9	nt	nt	nt	3841	-19
70	O=S(=O)(NC1CCN(Cc2ccccc2)CC1)c1cccc2cccnc12	12	-14	3.1	12	12	8597	4
71	Cc1ccc(S(=O)(=O)NCC2CCC(C(=O)NCc3ccco3)CC2)cc1 (stereo not given)	nt	3	-7.1	nt	9	2423	-27
72	COc1cc(/C=N/NC(=O)c2cccc(S(=O)(=O)N3CCCCC3)c2)cc(Br)c1O	nt	6	nt	nt	nt	3301	-16

High-throughput results as filed in PubChem.
